StopGo FLuc – Primary qHTS Assay for Foot and Mouth Disease Virus Antivirals against NCGC Sytravon and CBC Compound Libraries: Firefly Luciferase Signal; HEK cells with a luciferase reporter of 2A StopGo recoding; Potency, µM (highest dose often 57.5 µM), for inactives: at the highest dose signal change, negative = less light; actives 0.23% (n = 120,000); AID 1745856, 2022; active = well fitted falling curve with a large enough effect; inconclusive = small, poorly fitted or top-dose-only effect; inactive = no such curve, though single readings can be large or run the other way; also: nearly all actives have a fitted effect of over 60% in size; overnight with compound
StopGo RLuc – Primary qHTS Assay for Foot and Mouth Disease Virus Antivirals against NCGC Sytravon and CBC Compound Libraries: Renilla Luciferase Signal. AID 1745857, 2022. Potency, µM (top dose mostly 57.5 µM), inactives show at the highest dose signal change, negative = less light. actives 0.32% (n = 120,000). HEK cells with a luciferase reporter of 2A StopGo recoding; active means well fitted falling curve with a large enough effect; inconclusive means small, poorly fitted or top-dose-only effect; inactive means no such curve, though single readings can be large or run the other way; also: nearly all actives have a fitted effect of over 55% in size; overnight with compound
Numbers without * were called inactive; ? = inconclusive; & = joins results of further samples; [ ] = another dose, or the depositor's remark. % is scaled to controls: 0 for no effect and ±100 for the full control effect; potency is read from the fitted curve at half-maximal effect.

SMILES	StopGo FLuc	StopGo RLuc
COc1ccc(C2CC(=O)N(CC(=O)Nc3ccc(C(C)=O)cc3)c3ccccc3S2)cc1OC (stereo not given)	?	-25%&36%
COc1cccc(NC(=O)CN(C)C(=O)CNC(=O)c2ccc(C)cc2)c1	0%	6%
CCC(Sc1ncnc2sc3c(c12)CCCC3)C(=O)OC(C)C (stereo not given)	13%	6%
Cn1cc(C(=O)N2CCN(c3ccccc3)CC2)c(=O)c2cc(S(=O)(=O)N3CCCC3)ccc21	20%	20%
Cc1ccc(C(=O)/C(C#N)=C/c2ccccc2OCc2ccc(Br)cc2)cc1	0%	17%
CCOC(=O)Cc1ccc(NC(=O)N2CCc3c(sc4c3CCCC4)C2c2ccc(F)cc2)cc1 (stereo not given)	-24%	0%
CC(=O)N1CCCc2cc(S(=O)(=O)NCc3cccc(C)c3)ccc21	0%	150%[activator]
CCCCc1ccc(NC(=S)NNC=O)cc1	58%[activator]	5%
O=c1c2sc3ccccc3c2n(Cc2ccccc2Cl)c(=O)n1Cc1ccccc1	-3%	-7%
Cc1cc(=S)[nH]c(=S)[nH]1	2%	-7%
O=S(=O)(c1ccc2nc(Nc3ccc(Br)cc3F)ccc2c1)N1CCCCC1	0%	-3%
CCN(CC)C(=O)Cn1c(SCC(=O)Nc2ccc(C)c(C)c2)nc2ccccc21	-3%	8%
COc1cccc(NC(=O)Cn2c(=O)n(Cc3nc(-c4ccccc4)no3)c(=O)c3ccccc32)c1	5%	-7%
CCOC(=O)c1oc2cc(OCC(=O)OC(C)C)ccc2c(=O)c1-c1ccccc1OC	4%	-4%
O=C1N(Cc2cccc(F)c2)CCCN1c1cccc(C(=O)N2CCc3ccccc32)c1	?	-26%
Cc1cc(C)cc(Oc2c(C(F)(F)F)oc3c(CN4CCCC(C)C4)c(O)ccc3c2=O)c1 (stereo not given)	12%	0%
CC(=O)[C@H]1CC[C@H]2[C@@H]3CC[C@H]4C[C@H](O)CC[C@]4(C)[C@H]3C(=O)C[C@]12C	-11%	19%
COc1cc(OC)c(NC(=O)c2c(C)nn(-c3ccc(C)cc3)c2-n2cccc2)cc1Cl	6%	-9%
O=C(COC(=O)c1cnccn1)Nc1cccc(F)c1	31%[activator]	8%
O=C(O)C1CC(=O)N(c2ccc(S(=O)(=O)Nc3ccccc3F)cc2)C1 (stereo not given)	-4%	-8%
O=C(CCN(Cc1cccs1)CC1CCCO1)Nc1ccccc1 (stereo not given)	-5%	59%[activator]
COc1ccc(NC(=O)c2c(C)oc3ccc(O)c(CN4CCCC(C)C4)c23)cc1 (stereo not given)	-14%	-12%
CC(C)c1ccc(-c2cc(=O)c3cc(NC(=O)CCc4cc(Cl)no4)ccc3o2)cc1	75%[activator]	-3%
Cc1ccc(C2=NS(=O)(=O)N(C)C(C(=O)N3CCN(c4ccccc4)CC3)=C2)cc1	7%	14%
CCN(C(=O)c1ccsc1)C1CC1	2%	-4%

(list continues)
SMILES	StopGo FLuc	StopGo RLuc
CCOc1ccc(S(=O)(=O)N2Cc3ccccc3CC2C(=O)Nc2ccc(NC(C)=O)cc2)cc1 (stereo not given)	-11%	0%
Cc1cc2oc(=O)cc(CN3CCN(CCc4ccccn4)CC3)c2cc1C	-2%	-5%
CCOC(=O)c1c(C)oc2nc(C)nc(NCCc3ccc(OCC)cc3)c12	-10%	-10%
CCc1nnc(SCc2nc(-c3ccccc3F)oc2C)c2cc3sccc3n12	13%	-20%
COc1ccc(S(=O)(=O)c2c(O)c3ccc(C(=O)Nc4cccc(C)c4C)cc3[nH]c2=O)cc1	-1%	-11%
CCCCCc1ccc(-c2ccc(C3CCC(CCCC)CC3)cn2)cc1 (stereo not given)	25%	14%
O=C(CSc1ncc(-c2ccc(Cl)cc2)[nH]1)Nc1ccccc1F	4%	13%
CCCc1cc(=O)[nH]c(SCC(=O)N2CCN(S(=O)(=O)c3ccccc3)C2)n1	-7%	34%[activator]
CCN(CCCNC(=O)C(C)C)c1ccccc1	-4%	-9%
N=C(N)c1ccc(OCc2ccncc2)cc1	2%	5%
O=C(Nc1ccc(F)c(Cl)c1)c1ccc2c(Cl)c3c(nc2c1)CCC3	111%[activator]	23%
Cc1ccc(-c2nc(C#N)c(N3CCN(c4ccccc4)CC3)o2)cc1	-2%	-3%
CC(C)CC(NC/C=C/c1ccccc1)C(=O)O (stereo not given)	4%	4%
Cc1ccc2c(c1)nc(SCC(O)c1ccc(Br)cc1)n2C (stereo not given)	-1%	0%
Cc1cccc(C(=O)NCCC(=O)N2CCN(CC(=O)Nc3cccc(C)c3C)CC2)c1	-6%	-15%
O=S(=O)(Nc1cccc2cccnc12)c1ccccc1F	?	?
COC(=O)C1=C(C)Nc2nc3ccccc3n2C1c1ccc(OC)cc1 (stereo not given)	1%	-2%
CC(C)n1nc(C(=O)N2CCc3ccccc3C2)c2ccccc2c1=O	-1%	52%[activator]
CSc1ccc(C)c(C(=O)Nc2ccccc2C(C)C)c1	-13%	4%
COc1ccc(Nc2nc(Nc3ccccc3)c3nccnc3n2)cc1Cl	30%[activator]	0%
Nc1nc2c(ncn2CCC(CO)CO)c(=O)[nH]1	-18%	-9%
COc1ccccc1-c1cc2nc(C)c(CCC(=O)O)c(C)n2n1	?	17%
COc1cccc(CN2CCCCC2)c1OC	-2%	2%
C=C(C)Cn1c(NCC)nc2c1c(=O)[nH]c(=O)n2C	3%	3%
Cc1cc(NC(=O)CN2CCN(c3ncccn3)CC2)no1	23%	6%

Four entries from above, with bars between the fields:
SMILES | StopGo FLuc | StopGo RLuc
COc1ccccc1-c1cc2nc(C)c(CCC(=O)O)c(C)n2n1 | ? | 17%
COc1cccc(CN2CCCCC2)c1OC | -2% | 2%
C=C(C)Cn1c(NCC)nc2c1c(=O)[nH]c(=O)n2C | 3% | 3%
Cc1cc(NC(=O)CN2CCN(c3ncccn3)CC2)no1 | 23% | 6%

A second format for some results above.
COC(=O)C1=C(C)Nc2nc3ccccc3n2C1c1ccc(OC)cc1 (stereo not given)
  StopGo FLuc: 1% | StopGo RLuc: -2%

CCOC(=O)c1c(C)oc2nc(C)nc(NCCc3ccc(OCC)cc3)c12
  StopGo FLuc: -10% | StopGo RLuc: -10%

More entries follow.
SMILES	StopGo FLuc	StopGo RLuc
CCOc1ccc(CC(=O)NCCc2csc(-c3ccc(Cl)cc3)n2)cc1	-11%	-12%
Cc1ccc(N=Cc2cccc([N+](=O)[O-])c2)c(C)c1	-5%	-4%
COC(=O)[C@]12C[C@H](CC(=O)NCc3cccs3)C(=O)N(CCC3=CCCCC3)C1=C[C@H](C(C)C)O[C@@H]2C1CC1	16%	99%[activator]
Cc1ccc(-n2nc(CO)c(C(=O)NCc3ccccn3)n2)cc1	-3%	-10%
Cc1ccc(C(=O)NCCC(c2ccccc2)c2ccccc2)cn1	5%	-5%
Cn1cc(-c2cc3n(n2)CCC(=O)N3CCCC(=O)NCc2ccc(F)cc2)c2ccccc21	8%	49%[activator]
Cc1ccc(N2CC(NC(=O)CCc3ccccc3)CC2=O)cc1 (stereo not given)	-24%	-6%
COc1ccc(C2CC(c3ccccc3)=NN2C(=O)CSc2nnc(-c3ccccc3)o2)cc1 (stereo not given)	49%[activator]	13%
CC1=C(C(=O)Nc2ccccc2)C(c2cccc(Cl)c2Cl)NC(=S)N1 (stereo not given)	-6%	-11%
Cc1cc(C)c2c(CC(=O)Nc3c(C)cccc3C)coc2c1	24%	15%
Cc1cc(-c2cc(C(=O)O)c3ccccc3n2)cc(C)c1C	66%[activator]	?
COc1cc(C(=O)Oc2ccccc2C#N)ccc1OCc1ccc(Cl)cc1	2%	-6%
Cc1cccc(CNC(=O)c2ccc3nc(Cc4ccccc4)oc3c2)c1	22%	-4%
Nc1ccc(/C=C/C(=O)c2ccc(F)cc2)cc1	0%	41%[activator]
Cc1ccn2c(Nc3ccc(C(C)C)cc3)c(-c3ccsc3)nc2c1	13%	1%
Cc1cc(C)cc(C(=O)N(Cc2ccco2)C2CC2)c1	-5%	21%
O=C(C1CCC1)N1CCCc2cc(S(=O)(=O)N3CCN(c4cccc(Cl)c4)CC3)ccc21	-18%	-1%
Cc1ccc(-c2nc(CNC(=O)Nc3ccc(F)cc3)c(C)o2)cc1	-3%	0%
CCc1ccc(NC(=O)c2ccc(CN3CC(=O)N4CCCCC4C3=O)cc2)cc1 (stereo not given)	-9%	-14%
COc1ccc2nc(/C(C#N)=C\c3ccc(C)o3)[nH]c2c1	302%[activator]	87%[activator]
CC(Oc1ccccc1)C(=O)Nc1cccc(-c2cn3cccnc3n2)c1 (stereo not given)	-7%	0%
CCC(CCNC(=O)c1cc(C)nc2ccccc12)NC(=O)c1cc(C)nc2ccccc12 (stereo not given)	3%	-7%
N/C(=N\N=C\c1ccco1)N[N+](=O)[O-]	3%	1%
Cc1cc(C)cc(OCC(=O)N(Cc2ccco2)Cc2ccccc2Cl)c1	14%	44%[activator]
O=C(Nc1c(C(=O)N2CCN(c3ccc(F)cc3)CC2)oc2ccccc12)c1ccco1	-6%	5%

Gathered by group, the compounds so far with a thiophene ring, fused or not
SMILES	StopGo FLuc	StopGo RLuc
CCC(Sc1ncnc2sc3c(c12)CCCC3)C(=O)OC(C)C (stereo not given)	13%	6%
CCOC(=O)Cc1ccc(NC(=O)N2CCc3c(sc4c3CCCC4)C2c2ccc(F)cc2)cc1 (stereo not given)	-24%	0%
O=c1c2sc3ccccc3c2n(Cc2ccccc2Cl)c(=O)n1Cc1ccccc1	-3%	-7%
O=C(CCN(Cc1cccs1)CC1CCCO1)Nc1ccccc1 (stereo not given)	-5%	59%[activator]
CCN(C(=O)c1ccsc1)C1CC1	2%	-4%
CCc1nnc(SCc2nc(-c3ccccc3F)oc2C)c2cc3sccc3n12	13%	-20%
COC(=O)[C@]12C[C@H](CC(=O)NCc3cccs3)C(=O)N(CCC3=CCCCC3)C1=C[C@H](C(C)C)O[C@@H]2C1CC1	16%	99%[activator]
Cc1ccn2c(Nc3ccc(C(C)C)cc3)c(-c3ccsc3)nc2c1	13%	1%

Following part
SMILES	StopGo FLuc	StopGo RLuc
Cc1cc(C)c(S(=O)(=O)N2CCN(C(C(=O)NC3CC3)c3ccccc3)CC2)c(C)c1 (stereo not given)	-1%	12%
Cc1ccc(C(=O)Nc2ccc3c(c2)nc(CSc2nccc(C)n2)n3C)cc1	22%	?
CCCOC(=O)c1ccc(Nc2nc3ccccc3nc2NS(=O)(=O)c2ccc(OC)cc2)cc1	19%	13%
CC(C)Sc1nc(N2CCCCC2)c2c(c1C#N)CCCC2	10%	0%
CC1CCN(S(=O)(=O)c2ccc3c(c2)oc(=O)n3CC(=O)N2CCCCC2)CC1	-17%	10%
O=C(O)CCCNC(=O)Cn1ccc2cc(Br)ccc21	2%	-9%
Cc1oc(-c2cccs2)nc1CC(=O)NCCc1cccs1	51%[activator]	9%
COc1ccc(Cl)cc1NC(=O)c1nnn(Cc2cccc(C(F)(F)F)c2)c1N	17%	61%[activator]
COc1ccc(OC)c(/C(C)=N/O)c1	4%	-2%
Cn1c(=O)c2c(nc(CN3CCCCC3)n2CC(N)=O)n(C)c1=O	-9%	-15%
COc1ccc2c(C)c(CC(=O)Nc3nnc(CC(C)C)s3)c(=O)oc2c1OC	5%	-10%
COc1cc(CNCc2c(C(=O)O)c(C)n(Cc3cccc(Cl)c3)c2C)cc(OC)c1OC	33%[activator]	?
CC(=O)Nc1ccc(SC(C)C(=O)N(C)c2ccccc2)cc1 (stereo not given)	-3%	5%
CCOc1ccc(OCC)c(NC(=O)c2nnn(Cc3cc(Br)ccc3OC)c2N)c1	-4%&-22%	-4%&-10%
Cc1ccc(NC(=S)NCC2(C)CC(NC(=S)Nc3ccc(C)cc3C)CC(C)(C)C2)c(C)c1 (stereo not given)	-14%	84%[activator]
COc1ccccc1-c1c(NC(=O)C(C)C)n(C)c2ccccc2c1=O	13%	-1%
CC(C)(C)OC(=O)N1CCCC1C(=O)NCc1cccc(Cl)c1 (stereo not given)	-5%	-7%
O=C(COc1ncnc2ccc(Br)cc12)Nc1ccc(F)cc1F	-5%	-4%
CCN(Cc1ccc(Br)s1)C(=O)CCl	41%[activator]	-2%
Cc1ccccc1NC(=O)C(C#N)=C1CCCCCCC1	54%[activator]	81%[activator]
Cc1cccc(CN2CCC(CNC(=O)Nc3cn(C)c(=O)c4ccccc34)CC2)c1	-1%	-4%
O=C(CC(c1cccs1)N1Cc2ccccc2C1=O)Nc1ccc(F)c(Cl)c1 (stereo not given)	7%	16%
CC(C)Oc1ccc(CNC(=O)C2CCN(c3nc4ccccc4nc3C(F)(F)F)CC2)cc1	-21%	-6%
COc1ccc(C2=NOC(Cn3c(=O)c4c(ncn4C)n(C)c3=O)C2)cc1 (stereo not given)	81%[activator]	0%
Cc1ccc(C(=O)N(Cc2ccncc2)C2CC2)cc1	9%	8%

Further compounds:
SMILES	StopGo FLuc	StopGo RLuc
Nc1nc(Nc2ccccc2F)nc(-c2cc3ccccc3o2)n1	301%[activator]	56%[activator]
COc1ccc(CC(=O)NCCc2csc3nc(-c4ccccc4F)nn23)cc1	-11%	-3%
O=C(c1ccc(F)cc1)N1CCc2c([nH]c3ccccc23)C1c1ccc(Cl)cc1 (stereo not given)	?	?
CCCCN(CC)C(=O)c1csc(Nc2ccccc2C)n1	5%	0%
COc1ccc(C(=O)Nc2cccc3ccc(C)nc23)cc1Cl	-7%	-9%
COc1ccc(CNC(=O)c2cnc3c(cnn3C(C)C)c2)cc1	49%[activator]	2%

Screening results: PubChem BioAssay, National Center for Advancing Translational Sciences (NCATS)

The list is partial; count on the stated rates, not on these rows.
